BJeLR viability: BJeLR cell viability loss, primary screen, luminescence, CellTiterGlo ATP; BJeLR fibroblasts viability, 48 h; HRASV12, hTERT and SV40 LT/ST transformed; 30,000 compounds, 0.64% hits; viability loss activity score, % (no concentration beside the values); in the data active = viability loss activity score above about 50%; about a fifth of its hits are not listed in these tables;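 also: higher score means fewer live cells and less ATP luminescence; stock transfer was 50 or 100 nL into about 30 µL; 0% = vehicle wells and 100% = a reference killing control; one replicate is shown; the record names a cut of 85%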
A1 inhib: inducers of caspase activity in MEF A1-2A-BIM cells, primary screen, A1 inhibitor project, cell-based, CaspaseGlo luminescence. caspase-Glo luminescence, 3 h; percent of clofoctol signal, DMSO as zero. caspase activation, % (no concentration beside the values). 21,000 compounds, 0.51% hits. AID 2241, 2010;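 active = most replicate scores above 10, or exactly half above 10 with mean activity above 10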;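 also: effector caspase 3 and 7 activity cleaving a DEVD luciferin substrate; 50 nL library stock added to about 30 µL; numbers are from one replicate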
Starred values were filed as active, the others as inactive. The list is partial; count on the stated rates, not on these rows.

Cc1ccc(S(=O)(=O)N(C)C[C@H]2Oc3c(NC(=O)c4cc(C)nn4C)cccc3C(=O)N([C@H](C)CO)C[C@H]2C)cc1 was read as BJeLR viability 0.6.
Screening CCc1ccc(Nc2cc(C(=O)NCC(OC)OC)c3ccccc3n2)cc1 returned BJeLR viability -0.8.
For CS(=O)(=O)N(CC(=O)N1CCc2ccccc2C1)c1ccccc1 the results were BJeLR viability -1.6.
Cc1cc(C(=O)Nc2cccc3c2O[C@@H](CN(C)Cc2ccc(C(F)(F)F)cc2)[C@H](C)CN([C@H](C)CO)C3=O)n(C)n1 was read as BJeLR viability 0.4.
For COc1c(C2OCC(O)C(O)C2O)c(O)cc2oc(-c3ccc(OC4OC(C)C(O)C(O)C4O)cc3)cc(=O)c12 (centres undefined) the results were BJeLR viability -3.9 and A1 inhib 0.1.
For Cc1ccc(C2C(C#N)=C(N)OC(C3CC3)=C2C#N)cc1 (centres undefined) the results were BJeLR viability 1.9 and A1 inhib 0.1.
For COc1ccc(C2C3=C(CC(C)(C)CC3=O)N(C)C3=C2C(=O)CC(C)(C)C3)cc1 the results were BJeLR viability 2.1 and A1 inhib 1.2.
Screening O=c1[nH]cc(NCc2ccccc2)c(=O)[nH]1 returned BJeLR viability 0.4 and A1 inhib -0.3.
Cc1noc(C)c1S(=O)(=O)Nc1ccc2c(c1)C(=O)N([C@@H](C)CO)C[C@@H](C)[C@H](CN(C)S(=O)(=O)c1ccccc1)O2 was read as BJeLR viability -10 and A1 inhib -0.7.
For O=c1c2ccccc2nc(SCc2ccc3c(c2)OCO3)n1-c1ccccc1 the results were BJeLR viability 1.3 and A1 inhib 0.6.
c1ccc(-c2ccc(C(c3ccccc3)n3ccnc3)cc2)cc1 (centres undefined) was read as BJeLR viability -2.0 and A1 inhib 0.0.
C[C@@H]1CN([C@H](C)CO)C(=O)c2cccc(NS(=O)(=O)c3ccc(F)cc3)c2O[C@H]1CN(C)C(=O)Nc1ccc(F)cc1 was read as BJeLR viability -0.2.
`CC(C)NC(=O)Nc1ccc2c(c1)C(=O)N([C@H](C)CO)C[C@H](C)[C@@H](CN(C)C(=O)Nc1ccccc1)O2` gave BJeLR viability -8.3 and A1 inhib 0.0.
Cc1ccc(S(=O)(=O)Nc2ccc3c(c2)C(=O)N([C@H](C)CO)C[C@@H](C)[C@@H](CN(C)Cc2ccc4c(c2)OCO4)O3)cc1 was read as BJeLR viability 1.5 and A1 inhib 0.0.
`Cc1sc2nc(SCC(=O)c3ccc(O)c(O)c3)[nH]c(=O)c2c1C` gave BJeLR viability -0.5 and A1 inhib 0.2.
Screening C[C@@H]1CN([C@H](C)CO)C(=O)c2cc(NC(=O)CCN3CCOCC3)ccc2O[C@@H]1CN(C)C(=O)NC1CCCCC1 returned BJeLR viability 0.2 and A1 inhib 0.7.
Screening COc1ccc(NC(=O)Nc2ccc3c(c2)C(=O)N([C@H](C)CO)C[C@H](C)[C@@H](CN(C)C(=O)Nc2ccc(F)cc2)O3)cc1 returned BJeLR viability 4.5 and A1 inhib 0.8.
For C[C@@H]1CN([C@@H](C)CO)C(=O)c2cc(NC(=O)C3CC3)ccc2O[C@@H]1CN(C)S(C)(=O)=O the results were BJeLR viability 0.9 and A1 inhib -0.4.
For O=C1CC(c2ccc(O)cc2)Oc2cc(O[C@@H]3O[C@H](CO)[C@@H](O)[C@H](O)[C@H]3O)cc(O)c21 (some centres undefined) the results were BJeLR viability -5.9 and A1 inhib 0.7.
Screening C[C@@H]1CN([C@@H](C)CO)C(=O)c2cccc(NC(=O)Nc3ccc(C(F)(F)F)cc3)c2O[C@H]1CN(C)CC1CC1 returned BJeLR viability 0.8.
`N#Cc1c(SCC(=O)c2ccc(F)cc2)nsc1SCC(=O)c1ccc(F)cc1` gave BJeLR viability -6.2 and A1 inhib -2.4.
`COc1ccc(CCC(=O)Nc2n[nH]c3nc4cc(OC)ccc4cc23)cc1` gave BJeLR viability 5.1 and A1 inhib -1.7.
`Cc1ccc2oc(=O)c3cnn(CC(=O)Nc4cccnc4)c3c2c1` gave BJeLR viability 2.9.
Screening CCOC(=O)c1c(C)c(C#N)c(NC(=O)c2ccc(Cl)cc2Cl)n1-c1ccc(C)cc1 returned BJeLR viability 6.2 and A1 inhib 0.9.
C[C@H]1CN([C@@H](C)CO)C(=O)c2cc(NS(=O)(=O)c3cccs3)ccc2O[C@@H]1CN(C)Cc1ccc(Oc2ccccc2)cc1 was read as BJeLR viability -5.3 and A1 inhib 0.0.
`CC(C)NC(=O)Nc1cccc2c1O[C@H](CN(C)S(=O)(=O)c1cccs1)[C@H](C)CN([C@@H](C)CO)C2=O` gave BJeLR viability -2.0.
C=C(C)[C@@H]1Cc2c(ccc3c2O[C@H]2COc4cc(OC)c(OC)cc4[C@@]2(O)C3=O)O1 was read as BJeLR viability 39 and A1 inhib -0.7.
`CC(=O)Nc1ccc(OCc2ccccc2)cc1` gave BJeLR viability 4.7 and A1 inhib -5.1.
Screening COc1ccc2cc3cc(C(=O)NCCC4=CCCCC4)sc3nc2c1 returned BJeLR viability 20.
For C[C@H]1CN([C@@H](C)CO)C(=O)c2cc(NS(=O)(=O)c3ccc(F)cc3)ccc2O[C@@H]1CN(C)CC1CC1 the results were BJeLR viability -1.6 and A1 inhib -0.1.
Cc1nn(C)cc1NC(=O)Nc1ccc(F)cc1 was read as BJeLR viability 17 and A1 inhib -0.4.
Screening Cc1cc(C(=O)Nc2ccc(CN3CCS(=O)(=O)CC3)cc2)no1 returned BJeLR viability 18 and A1 inhib 1.0.
`CC(C)CCNC(=O)c1csc2c1CCCC2` gave BJeLR viability 3.0 and A1 inhib -0.1.
For CC1(C)CC[C@]2(C(=O)O[C@@H]3O[C@H](CO)[C@@H](O)[C@H](O)[C@H]3O)CC[C@]3(C)C(=CCC4[C@@]5(C)CC[C@H](O[C@@H]6O[C@H](CO)[C@@H](O)[C@H](O)[C@H]6O)[C@@](C)(CO)C5CC[C@]43C)[C@@H]2C1 (some centres undefined) the results were BJeLR viability -4.7 and A1 inhib 0.1.
`CC(=O)n1nc(-c2ccc(Cl)cc2)nc1NCc1ccc(F)cc1` gave BJeLR viability 3.3.
`CNC[C@H]1Oc2c(NS(=O)(=O)c3ccc(Cl)cc3)cccc2C(=O)N([C@@H](C)CO)C[C@@H]1C` gave BJeLR viability 3.6.
Screening C[C@@H]1CN([C@@H](C)CO)C(=O)c2cc(NC(=O)NC3CCCCC3)ccc2O[C@@H]1CN(C)C(=O)Nc1cccc2ccccc12 returned BJeLR viability 0.4 and A1 inhib 0.0.
For Cc1noc(C)c1NC(=O)Nc1cccc2c1O[C@@H](CN(C)C(=O)NC1CCCCC1)[C@@H](C)CN([C@@H](C)CO)C2=O the results were BJeLR viability 0.5.
`C[C@H]1CN([C@@H](C)CO)C(=O)c2cc(NC(=O)C3CCCCC3)ccc2O[C@@H]1CN(C)CC1CC1` gave BJeLR viability 1.1 and A1 inhib -0.1.
For CCc1ccc(OCCCn2cc(/C=C3/C(=N)N4C=CSC4=NC3=O)c3ccccc32)cc1 the results were BJeLR viability 13 and A1 inhib -0.2.

Ordered by count of non-hydrogen atoms (low to high): some entries from above
`CC(C)CCNC(=O)c1csc2c1CCCC2` gave BJeLR viability 3.0 and A1 inhib -0.1.
`CC(=O)n1nc(-c2ccc(Cl)cc2)nc1NCc1ccc(F)cc1` gave BJeLR viability 3.3.
`Cc1ccc2oc(=O)c3cnn(CC(=O)Nc4cccnc4)c3c2c1` gave BJeLR viability 2.9.
`COc1ccc(CCC(=O)Nc2n[nH]c3nc4cc(OC)ccc4cc23)cc1` gave BJeLR viability 5.1 and A1 inhib -1.7.
For O=C1CC(c2ccc(O)cc2)Oc2cc(O[C@@H]3O[C@H](CO)[C@@H](O)[C@H](O)[C@H]3O)cc(O)c21 (some centres undefined) the results were BJeLR viability -5.9 and A1 inhib 0.7.
For C[C@H]1CN([C@@H](C)CO)C(=O)c2cc(NS(=O)(=O)c3ccc(F)cc3)ccc2O[C@@H]1CN(C)CC1CC1 the results were BJeLR viability -1.6 and A1 inhib -0.1.
For COc1c(C2OCC(O)C(O)C2O)c(O)cc2oc(-c3ccc(OC4OC(C)C(O)C(O)C4O)cc3)cc(=O)c12 (centres undefined) the results were BJeLR viability -3.9 and A1 inhib 0.1.
C[C@@H]1CN([C@H](C)CO)C(=O)c2cccc(NS(=O)(=O)c3ccc(F)cc3)c2O[C@H]1CN(C)C(=O)Nc1ccc(F)cc1 was read as BJeLR viability -0.2.
C[C@H]1CN([C@@H](C)CO)C(=O)c2cc(NS(=O)(=O)c3cccs3)ccc2O[C@@H]1CN(C)Cc1ccc(Oc2ccccc2)cc1 was read as BJeLR viability -5.3 and A1 inhib 0.0.

(cont.)
Screening C[C@H]1CN([C@@H](C)CO)C(=O)c2cc(NS(=O)(=O)c3ccc(Cl)cc3)ccc2O[C@H]1CN(C)Cc1ccc(Oc2ccccc2)cc1 returned BJeLR viability -0.9 and A1 inhib 0.1.
`C[C@H]1CN([C@@H](C)CO)C(=O)c2cccc(NC(=O)Nc3ccccc3)c2O[C@@H]1CN(C)CC1CCCCC1` gave BJeLR viability -2.1.
Screening COc1ccc(S(=O)(=O)N(C)C[C@@H]2Oc3ccc(NS(=O)(=O)c4c(C)noc4C)cc3C(=O)N([C@H](C)CO)C[C@@H]2C)cc1 returned BJeLR viability -6.6 and A1 inhib 0.0.
CC1(C)S[C@@H]2[C@H](NC(=O)[C@H](NC(=O)N3CCNC3=O)c3ccccc3)C(=O)N2[C@H]1C(=O)O was read as BJeLR viability 4.4 and A1 inhib -0.2.
Screening CN1CCc2cc(Cl)c(O)cc2[C@@H](c2ccccc2)C1 returned BJeLR viability -1.9 and A1 inhib 0.2.
Cc1noc(C)c1S(=O)(=O)Nc1cccc2c1O[C@H](CN(C)C(=O)Nc1ccc(F)cc1)[C@H](C)CN([C@H](C)CO)C2=O was read as BJeLR viability 0.0.
C[C@@H]1CN([C@@H](C)CO)C(=O)c2cccc(NC(=O)C3CC3)c2O[C@H]1CN(C)S(=O)(=O)c1ccccc1 was read as BJeLR viability -1.3.
Screening C[C@@H]1CN([C@@H](C)CO)C(=O)c2cccc(NC(=O)Nc3ccc(F)cc3)c2O[C@H]1CN(C)C(=O)Nc1ccc2c(c1)OCO2 returned BJeLR viability 4.0.
CC(c1ccccc1)N(Cc1ccccc1)C(=S)Nc1ccccc1 (centres undefined) was read as BJeLR viability -3.9.
Screening Cc1ccc(S(=O)(=O)Nc2ccc3c(c2)C(=O)N([C@@H](C)CO)C[C@H](C)[C@H](CN(C)S(=O)(=O)c2c(C)noc2C)O3)cc1 returned BJeLR viability 3.1 and A1 inhib 0.9.
O=C(/C=C/c1ccccc1)c1ccc(O)cc1 was read as BJeLR viability -1.7 and A1 inhib -4.8.
For C[C@H](CO)N1C[C@H](C)[C@H](CN(C)Cc2ccc(C(F)(F)F)cc2)Oc2ccc(N(C)C)cc2C1=O the results were BJeLR viability 1.6 and A1 inhib 0.3.
Screening Cc1ccc(S(=O)(=O)N(C)C[C@H]2Oc3c(NC(=O)c4cc(C)nn4C)cccc3C(=O)N([C@H](C)CO)C[C@@H]2C)cc1 returned BJeLR viability 3.2.
CC(C)Nc1cnn(C23CC4CC(CC(C4)C2)C3)c(=O)c1Cl was read as BJeLR viability 3.1 and A1 inhib 0.2.
CC1CCCCN1C(=O)CSc1nc(-c2ccccc2)cc(C(F)(F)F)n1 (centres undefined) was read as BJeLR viability -1.5.
`Cn1ccnc1SCCS(=O)(=O)c1ccccc1` gave BJeLR viability 3.4 and A1 inhib -0.2.
Screening CCC(C)N1C(=O)S/C(=C/c2ccc3c(c2)n(C)c(=O)n3C)C1=O (centres undefined) returned BJeLR viability 12 and A1 inhib 0.5.
Screening CCOc1ccc2c(c1)sc(=NC(=O)c1cc3ccccc3cc1OC)n2C returned BJeLR viability -0.4 and A1 inhib 1.9.
Screening C[C@@H]1CN([C@@H](C)CO)C(=O)c2cccc(NC(=O)Nc3ccc4c(c3)OCO4)c2O[C@@H]1CN(C)CC1CCCCC1 returned BJeLR viability -0.9.
`CC(C)NC(=O)Nc1cccc2c1O[C@@H](CN(C)C(=O)Nc1ccccc1)[C@@H](C)CN([C@H](C)CO)C2=O` gave BJeLR viability -2.1.
`COc1ccc(C2N(C(=O)c3ccccc3)CCN2C(=O)c2ccc(C)cc2)cc1` (centres undefined) gave BJeLR viability 0.9 and A1 inhib 1.4.
For C[C@H]1CN([C@@H](C)CO)C(=O)c2cccc(NC(=O)c3ccncc3)c2O[C@@H]1CN(C)C(=O)Nc1cccc2ccccc12 the results were BJeLR viability -0.9.
Screening C[C@@H]1CN([C@H](C)CO)C(=O)c2cccc(NC(=O)Nc3ccc(F)cc3)c2O[C@@H]1CN(C)S(=O)(=O)c1ccc(Cl)cc1 returned BJeLR viability -0.3.
Screening C[C@H]1CN([C@@H](C)CO)C(=O)c2cc(NC(=O)CCN3CCOCC3)ccc2O[C@@H]1CN(C)Cc1ccc(C(=O)Nc2ccccc2N)cc1 returned BJeLR viability 4.1.
Screening C[C@@H]1CN([C@H](C)CO)C(=O)c2cccc(N(C)C)c2O[C@H]1CN(C)C(=O)Nc1ccccc1 returned BJeLR viability 1.2.
Screening CCOC(=O)c1csc(-c2cccs2)n1 returned BJeLR viability 18 and A1 inhib -6.6.
C[C@@H]1CN([C@H](C)CO)C(=O)c2cc(NC(=O)Cc3ccccc3)ccc2O[C@@H]1CN(C)Cc1ccncc1 was read as BJeLR viability 0.5 and A1 inhib 1.2.
For Cc1ccc(C(=O)Nc2ccc(-c3cn4c(n3)SCC4)cc2)cc1C the results were BJeLR viability 0.4 and A1 inhib -0.3.
Cc1ccc(-n2c(C)nc3sc4c(c3c2=O)CCC4)cc1 was read as BJeLR viability -4.9 and A1 inhib 0.5.
CCCN(CCC)C(=O)c1sc2nc(-c3ccccc3)cn2c1C was read as BJeLR viability -0.8.
